# Bioassay records from PubChem BioAssay.
# Yeast UUG start: yeast start codon fidelity modulation. S. cerevisiae UUG-firefly luciferase reporter, luminescence/redox ratio. actives 0.13% (n = 350,000). activity score, % at 18.7 µM;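 active = replicate mean at a twofold rise or more, about +100% in these data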;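 note: firefly luciferase made from a UUG start codon reports start codon fidelity; reporter light over untreated wells divided by growth signal over untreated wells; some hits fall short of that in this replicate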
# HIV Env fusion: blocks HIV Env-driven cell-cell fusion | HeLa-JRFL Env/CEM21 cell fusion, luciferase | inhibition, % at 12.3 µM | actives 1.1% (n = 360,000) | AID 651610;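 active = mean replicate inhibition score of at least 50 and every replicate individually at or above 50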;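 note: 0% = plate neutral controls and 100% = maraviroc near 300 nM; one replicate is shown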
# * marks the source's active call; other numbers are inactive results; [ ] = remark or other dose. Not all compounds are listed (hit frequency here may not be typical).
SMILES | Yeast UUG start | HIV Env fusion
COc1ccc(CN(C)C[C@@H]2OCCCC[C@@H](C)Oc3ccc(NC(=O)CCC(F)(F)F)cc3C(=O)N([C@H](C)CO)C[C@@H]2C)cc1 | -10 | -23[16.7 µM]
CN(C)CC(=O)N[C@H]1CC[C@@H](CC(=O)NCCN2CCCCC2)O[C@H]1CO | -11 | 16[16.7 µM]
COCC(=O)N1[C@H](C#N)[C@H](c2ccccc2)[C@H]1CO | 13 | -16[16.7 µM]
CCCNC(=O)N[C@H]1CC[C@H](CCn2cc(C3CCCC3)nn2)O[C@H]1CO | -3 | 19[16.7 µM]
Cc1ccc(S(=O)(=O)N(C)C[C@@H]2OCCCC[C@@H](C)Oc3ccc(NS(C)(=O)=O)cc3C(=O)N([C@@H](C)CO)C[C@@H]2C)cc1 | 27 | -11[16.7 µM]
COc1ccc(NC(=O)N(C)C[C@@H]2OCCCC[C@@H](C)Oc3ccc(NS(=O)(=O)c4cn(C)cn4)cc3C(=O)N([C@H](C)CO)C[C@@H]2C)cc1 | -14 | 31[16.7 µM]
COc1ccc(S(=O)(=O)N(C)C[C@@H]2OCCCC[C@H](C)Oc3ccc(NS(=O)(=O)c4c(C)noc4C)cc3C(=O)N([C@@H](C)CO)C[C@H]2C)cc1 | 9 | -1[16.7 µM]
COc1ccc(S(=O)(=O)N(C)C[C@@H]2Oc3ccc(NC(=O)Cn4cnnn4)cc3C(=O)N([C@H](C)CO)C[C@H]2C)cc1 | 5 | 18[16.7 µM]
CC(C)C#Cc1cnc2c(c1)C(=O)N([C@@H](C)CO)C[C@@H](C)[C@H](CN(C)C(=O)c1cnccn1)O2 | 5 | -5[16.7 µM]
O=C(Cc1ccccn1)N[C@H]1CC[C@@H](CCn2cc(-c3cccnc3)nn2)O[C@H]1CO | 0 | 12[16.7 µM]
C[C@H](CO)N1C[C@H](C)[C@H](CN(C)C(=O)c2ccncc2)OCCCC[C@H](C)Oc2ccc(NS(=O)(=O)c3ccc(Cl)cc3)cc2C1=O | 23 | -13[16.7 µM]
C[C@H]1CCCCO[C@H](CN(C)C(=O)Nc2ccc(C(F)(F)F)cc2)[C@@H](C)CN([C@@H](C)CO)C(=O)c2cc(NC(=O)Nc3ccc(C(F)(F)F)cc3)ccc2O1 | -15 | 45[16.7 µM]
O=C(C[C@H]1C=C[C@H](NC(=O)C2CCOCC2)[C@@H](CO)O1)Nc1ccc(-c2ccccc2)cc1 | -9 | 15[16.7 µM]
Cc1noc(C)c1S(=O)(=O)Nc1ccc2c(c1)C(=O)N([C@@H](C)CO)C[C@@H](C)[C@H](CN(C)S(=O)(=O)c1ccccc1)OCCCC[C@@H](C)O2 | -9 | -39[16.7 µM]
CCS(=O)(=O)Nc1ccc2c(c1)C(=O)N(C)C[C@@H](OC)[C@@H](C)CN(C(=O)C1CCC1)[C@H](C)CO2 | -7 | 3[16.7 µM]
CC(C)CC#Cc1ccc2c(c1)O[C@H](CN(C)C(=O)Cc1ccncc1)[C@H](C)CN([C@@H](C)CO)S2(=O)=O | -6 | -31[16.7 µM]
CCCNC(=O)C[C@@H]1CC[C@H]2[C@@H](COc3ccc(NC(=O)C4CCCC4)cc3C(=O)N2C)O1 | 1 | 1[16.7 µM]
O=C(Nc1ccc2c(c1)OCO2)N[C@H]1CC[C@@H](CC(=O)N2CCN(c3ccccc3)CC2)O[C@@H]1CO | 11 | 0[16.7 µM]
C[C@H]1CN([C@@H](C)CO)C(=O)Cc2cc(NS(=O)(=O)c3ccccc3)ccc2O[C@H]1CN(C)Cc1ccccc1 | -2 | 0[16.7 µM]
C[C@@H]1CCCCO[C@@H](CN(C)C(=O)Nc2ccc3c(c2)OCO3)[C@@H](C)CN([C@H](C)CO)C(=O)c2cc(NC(=O)CCC(F)(F)F)ccc2O1 | 1 | 22[16.7 µM]
C[C@@H]1CN([C@@H](C)CO)S(=O)(=O)c2ccc(C#Cc3ccncc3)cc2O[C@@H]1CN(C)C(=O)C1CC1 | -6 | -44[16.7 µM]
COc1cccc(NC(=O)N[C@@H]2CC[C@@H](CC(=O)NCc3ccccn3)O[C@@H]2CO)c1 | -10 | 11[16.7 µM]
COc1cccc(CNC(=O)C[C@H]2C=C[C@H](NC(=O)C3CCOCC3)[C@H](CO)O2)c1 | 2 | 19[16.7 µM]
O=C(C[C@@H]1C=C[C@H](NC(=O)C2CCC2)[C@@H](CO)O1)NC1CCCCC1 | 5 | -6[16.7 µM]
C[C@@H]1CCCCO[C@H](CN(C)S(C)(=O)=O)[C@H](C)CN([C@@H](C)CO)C(=O)c2cc(NS(=O)(=O)c3cccs3)ccc2O1 | -7 | -8[16.7 µM]
CCC(=O)Nc1ccc2c(c1)C(=O)N(C)[C@H]1CC[C@H](CC(=O)Nc3cccc(OC)c3)O[C@H]1CO2 | 35 | -19[16.7 µM]
CCCC#Cc1ccc2c(c1)O[C@H](CN(C)C(=O)C1CC1)[C@@H](C)CN([C@@H](C)CO)S2(=O)=O | 11 | -4[16.7 µM]
C[C@@H]1CCCCO[C@@H](CN(C)CC2CCCCC2)[C@@H](C)CN([C@H](C)CO)C(=O)c2cc(NC(=O)Nc3ccc4c(c3)OCO4)ccc2O1 | 2 | -21[16.7 µM]
C[C@@H]1CN([C@@H](C)CO)C(=O)c2cccc(NS(=O)(=O)c3cn(C)cn3)c2O[C@H]1CN(C)C(=O)Nc1ccccc1 | -4 | -2[16.7 µM]
C[C@H](O)C#Cc1cnc2c(c1)C(=O)N([C@@H](C)CO)C[C@@H](C)[C@@H](CN(C)C(=O)CN(C)C)O2 | 4 | 1[16.7 µM]

# Laid out differently: two of the compounds above.
O=C(Nc1ccc2c(c1)OCO2)N[C@H]1CC[C@@H](CC(=O)N2CCN(c3ccccc3)CC2)O[C@@H]1CO
- Yeast UUG start: 11
- HIV Env fusion: 0[16.7 µM]

CC(C)CC#Cc1ccc2c(c1)O[C@H](CN(C)C(=O)Cc1ccncc1)[C@H](C)CN([C@@H](C)CO)S2(=O)=O
- Yeast UUG start: -6
- HIV Env fusion: -31[16.7 µM]

# Random excerpt: 2 records from the list.
SMILES | Yeast UUG start | HIV Env fusion
COc1ccc(CN(C)C[C@@H]2OCCCC[C@@H](C)Oc3ccc(NC(=O)CCC(F)(F)F)cc3C(=O)N([C@H](C)CO)C[C@@H]2C)cc1 | -10 | -23[16.7 µM]
C[C@@H]1CN([C@@H](C)CO)C(=O)c2cccc(NS(=O)(=O)c3cn(C)cn3)c2O[C@H]1CN(C)C(=O)Nc1ccccc1 | -4 | -2[16.7 µM]

# (further entries)
SMILES | Yeast UUG start | HIV Env fusion
COc1ccccc1S(=O)(=O)N[C@@H]1CC[C@H](CC(=O)N2CCN(C)CC2)O[C@@H]1CO | -3 | -1[16.7 µM]
C[C@@H]1CCCCO[C@@H](CN(C)Cc2ccc(C(F)(F)F)cc2)[C@H](C)CN([C@H](C)CO)C(=O)c2cc(NC(=O)Nc3ccc(F)cc3)ccc2O1 | 8 | 60*[16.7 µM]
CCNC(=O)C[C@H]1CC[C@@H]2[C@@H](COc3ccc(NS(C)(=O)=O)cc3C(=O)N2C)O1 | 7 | 10[16.7 µM]
C[C@@H]1CCCCO[C@H](CN(C)Cc2ccc(C(=O)O)cc2)[C@@H](C)CN([C@H](C)CO)C(=O)c2cc(NC(=O)Nc3cccc4ccccc34)ccc2O1 | -9 | -6[16.7 µM]
COc1cccc(C#Cc2cnc3c(c2)C(=O)N([C@H](C)CO)C[C@@H](C)[C@@H](CN(C)C(=O)C2CCCCC2)O3)c1 | 1 | 1[16.7 µM]
C[C@@H]1CN([C@@H](C)CO)C(=O)c2cc(NS(=O)(=O)c3cccs3)ccc2O[C@@H](C)CCCCO[C@@H]1CN(C)C(=O)CCC(F)(F)F | 10 | 1[16.7 µM]
C[C@@H]1CN([C@H](C)CO)C(=O)c2cccc(NC(=O)c3ccc(-c4nccs4)cc3)c2O[C@@H]1CN(C)Cc1ccc(-c2ccccc2)cc1 | -1 | 3[16.7 µM]
C[C@@H]1CCCCO[C@@H](CN(C)C(=O)CCC(F)(F)F)[C@H](C)CN([C@@H](C)CO)C(=O)c2cc(NC(=O)CCC(F)(F)F)ccc2O1 | 6 | -55[16.7 µM]
CNC[C@H]1Oc2c(NC(=O)C3CC3)cccc2C(=O)N([C@H](C)CO)C[C@H]1C | -3 | -3[16.7 µM]
C[C@@H]1CN([C@@H](C)CO)C(=O)c2cc(C#Cc3ccccc3)cnc2O[C@@H]1CN(C)CC1CCOCC1 | 0 | -4[16.7 µM]
C[C@H](CO)N1C[C@H](C)[C@H](CN(C)Cc2ccc(Cl)c(Cl)c2)OCCCC[C@H](C)Oc2ccc(NC(=O)NC3CCCCC3)cc2C1=O | -1 | 10[16.7 µM]
COc1ccc(S(=O)(=O)Nc2ccc3c(c2)CC(=O)N([C@H](C)CO)C[C@@H](C)[C@@H](CN(C)S(=O)(=O)c2ccc(OC)cc2)O3)cc1 | -4 | -2[16.7 µM]
CCNC(=O)C[C@H]1CC[C@@H](NS(=O)(=O)c2ccc(F)cc2)[C@H](CO)O1 | -2 | 11[16.7 µM]
Cc1ccc(S(=O)(=O)N[C@H]2C=C[C@H](CC(=O)NCc3ccccc3F)O[C@H]2CO)cc1 | -7 | 2[16.7 µM]
C[C@H](CO)N1C[C@H](C)[C@@H](CN(C)C(=O)CC2CC2)Oc2cc(C#CC(C)(C)O)ccc2S1(=O)=O | 0 | -10[16.7 µM]

# The listing continues.
# Value order – Yeast UUG start | HIV Env fusion
- C[C@@H]1CN([C@H](C)CO)C(=O)c2cc(C#CC3(O)CCCC3)cnc2O[C@H]1CN(C)Cc1cncnc1
    45 | -13[16.7 µM]
- O=C(C[C@@H]1C=C[C@H](NC(=O)Nc2cc(F)ccc2F)[C@H](CO)O1)NCCCN1CCOCC1
    -1 | -1[16.7 µM]
- CO[C@@H]1CN(C)C(=O)c2ccc(NC(=O)Nc3c(C)noc3C)cc2OC[C@H](C)N(C)C[C@H]1C
    -12 | 3[16.7 µM]
- C[C@@H]1CCCCO[C@H](CN(C)CC2CCCCC2)[C@H](C)CN([C@@H](C)CO)C(=O)c2cc(NC(=O)Nc3ccc(F)cc3)ccc2O1
    23 | 1[16.7 µM]
- Cc1noc(C)c1S(=O)(=O)N(C)C[C@H]1OCCCC[C@@H](C)Oc2ccc(NC(=O)c3ccccc3)cc2C(=O)N([C@H](C)CO)C[C@@H]1C
    0 | -3[16.7 µM]
- C[C@@H]1CCCCO[C@@H](CN(C)Cc2ccncc2)[C@@H](C)CN([C@H](C)CO)C(=O)c2cc(NS(=O)(=O)c3ccc(F)cc3)ccc2O1
    0 | 0[16.7 µM]
- C[C@H]1CN([C@@H](C)CO)S(=O)(=O)c2ccc(C#CCC3CCCC3)cc2O[C@H]1CN(C)C
    19 | 5[16.7 µM]
- C[C@@H]1CN([C@H](C)CO)C(=O)c2cc(NC(=O)Cc3ccccc3)ccc2O[C@@H](C)CCCCO[C@@H]1CN(C)CC1CCCCC1
    21 | -18[16.7 µM]
- C[C@@H]1CN([C@@H](C)CO)C(=O)Cc2cc(NC(=O)Cc3cn(C)c4ccccc34)ccc2O[C@@H]1CN(C)S(=O)(=O)c1cn(C)cn1
    -17 | -9[16.7 µM]
- CCC(=O)Nc1ccc2c(c1)C(=O)N(C)[C@H]1CC[C@H](CC(=O)NCCc3ccccc3)O[C@H]1CO2
    -16 | -3[16.7 µM]
- CNC[C@H]1Oc2c(NC(=O)NC3CCCCC3)cccc2C(=O)N([C@H](C)CO)C[C@H]1C
    7 | -10[16.7 µM]
- CC(C)NC(=O)N[C@@H]1CC[C@@H](CC(=O)NCCN2CCCC2)O[C@@H]1CO
    -10 | -11[16.7 µM]
- C[C@H](CO)N1C[C@H](C)[C@H](CN(C)Cc2ccccn2)Oc2ncc(-c3ccccc3)cc2C1=O
    -27 | -8[16.7 µM]
- Cc1ccc(S(=O)(=O)N(C)C[C@@H]2Oc3ccc(NS(=O)(=O)c4ccccc4)cc3C(=O)N([C@H](C)CO)C[C@@H]2C)cc1
    15 | 5[16.7 µM]
- CCCNC(=O)C[C@H]1CC[C@H]2[C@@H](COc3ccc(NC(=O)NCC)cc3C(=O)N2C)O1
    1 | -2[16.7 µM]
- C[C@H]1CCCCO[C@H](CN(C)C(=O)Nc2ccc3c(c2)OCO3)[C@@H](C)CN([C@@H](C)CO)C(=O)c2cc(NC(=O)Cc3ccccc3)ccc2O1
    -7 | 23[16.7 µM]
- C[C@@H]1CN([C@@H](C)CO)C(=O)c2cccc(NS(=O)(=O)c3cn(C)cn3)c2O[C@@H]1CN(C)Cc1ccccc1
    -12 | -18[16.7 µM]
- Cc1noc(C)c1NC(=O)Nc1ccc2c(c1)CC(=O)N([C@H](C)CO)C[C@H](C)[C@@H](CN(C)S(=O)(=O)c1ccc(Cl)cc1)O2
    11 | -1[16.7 µM]
- Cc1ccc(S(=O)(=O)Nc2ccc3c(c2)C(=O)N([C@H](C)CO)C[C@H](C)[C@@H](CN(C)C(=O)NC(C)C)OCCCC[C@@H](C)O3)cc1
    -1 | 2[16.7 µM]
- COc1ccccc1-c1cn(CC[C@@H]2CC[C@@H](NC(=O)C3CC3)[C@H](CO)O2)nn1
    19 | 7[16.7 µM]
- C[C@H]1CN([C@@H](C)CO)C(=O)c2cccc(NC(=O)c3nc4ccccc4s3)c2O[C@@H]1CN(C)C(=O)Nc1ccc(F)cc1
    6 | -26[16.7 µM]
- C[C@@H]1CCCCO[C@@H](CN(C)Cc2ccncc2)[C@H](C)CN([C@@H](C)CO)C(=O)c2cc(NS(=O)(=O)c3ccccc3)ccc2O1
    1 | 19[16.7 µM]
- C[C@@H]1CN([C@@H](C)CO)C(=O)c2cccc(NC(=O)c3nc4ccccc4s3)c2O[C@H]1CN(C)Cc1ccc(C(=O)O)cc1
    -1 | 20[16.7 µM]

# Quoted from the listing.
# Yeast UUG start result of `C[C@@H]1CN([C@H](C)CO)C(=O)c2cccc(NC(=O)c3ccc(-c4nccs4)cc3)c2O[C@@H]1CN(C)Cc1ccc(-c2ccccc2)cc1` is entered as -1
# Yeast UUG start result of `CC(C)C#Cc1cnc2c(c1)C(=O)N([C@@H](C)CO)C[C@@H](C)[C@H](CN(C)C(=O)c1cnccn1)O2` is entered as 5
